Compound activity: PubChem, Broad Institute
Tg IFNy HTS = blocks Toxoplasma gondii growth in the presence of IFN-gamma. Toxoplasma gondii growth in IFN-gamma-treated host cells; active compounds read low; reference of the scale not given here. activity change, negative = inhibition, %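 (about 20 µM by stock and volumes)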. actives 3.8% (n = 69,000). AID 1259416;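 active = below -70%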;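 note: host cells are HeLa cells infected with Toxoplasma gondii; parasite growth read as luciferase light; one replicate is shown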
The depositor's hits bear a star; i = inactive. These rows are one share of the data (hit frequency here may not be typical).

SMILES	Tg IFNy HTS
O=S(=O)(c1ccccc1)N1CC2CN(Cc3ccc(Cl)cc3)C2C1 (stereo not drawn)	-105.6*
O=C(c1cccs1)N1CCC[C@H]1Cn1nnc2ccccc2c1=O	31.8
CNc1nc(Oc2ccc(C(=O)OC)cc2)nc(SC)n1	6.2
COc1ccccc1NC(=O)N1CCc2[nH]c3ccc(Cl)cc3c2C1	3.3
Cc1onc(-c2ccccc2)c1C(=O)N1CCCN(CC2CC2)C(C(C)C)C1 (stereo not drawn)	14.4
COC(=O)C1=C(C)NC(C)=C([N+](=O)[O-])[C@H]1c1ccccc1C(F)(F)F	-34.5
Cn1ccc2cc(CCC(=O)N3CCCC3)ccc21	15.4
OCCn1ccnc1-c1ccc(-c2ccccc2Cl)o1	157.4
CCc1ccc(NC(=O)c2c(O)c3cccnc3n(-c3ccc(F)cc3)c2=O)cc1	80.2
CN1CCN(C(=O)C[C@H]2CC[C@H]3[C@H](COc4ccc(NC(=O)C5CCOCC5)cc4C(=O)N3C)O2)CC1	5.6

The closing 4 entries of the part before come first, to join the parts.
SMILES	Tg IFNy HTS
Cn1ccc2cc(CCC(=O)N3CCCC3)ccc21	15.4
OCCn1ccnc1-c1ccc(-c2ccccc2Cl)o1	157.4
CCc1ccc(NC(=O)c2c(O)c3cccnc3n(-c3ccc(F)cc3)c2=O)cc1	80.2
CN1CCN(C(=O)C[C@H]2CC[C@H]3[C@H](COc4ccc(NC(=O)C5CCOCC5)cc4C(=O)N3C)O2)CC1	5.6
CCO[C@H]1[C@H](NC(=O)c2cnn(C(C)C)c2)c2ccccc2C12CCNCC2	3.4
CC(C)C(NC(=O)c1cc2ccccc2o1)c1nnc2n1CCNCC2 (stereo not drawn)	1.2
COc1cc2c(cc1CNC(=O)c1cc3n(n1)CCCN(C)C3)CCC2	5.2
O=S(=O)(Cc1ccccc1)N1CCC2(CC1)Nc1ccc(Cl)cc1-n1cccc12	-60.3
O=S(=O)(c1cc(Cl)c(Cl)s1)N1CCN(c2cc(C(F)(F)F)ccn2)CC1	-29.3
CCc1ccc(CN2CC[C@@H](c3ccc(F)cc3)[C@H](O)C2)nc1	-2.9
CC(C)CN1CCC2(C=C(C(=O)N3CCCC3)c3ccccc32)CC1	-56.3
COc1ccc(-c2nc(C)c(CCNC(=O)C(=O)Nc3cccc(C)c3C)s2)cc1	65.5
Cc1cc(C(F)(F)F)nn1CC(=O)N1CCCC1c1cc(C(C)C)no1 (stereo not drawn)	0.4
Fc1cccc(CN(Cc2cncn2Cc2ccccc2)CC2CCCO2)c1 (stereo not drawn)	-92.9*

In the list so far, 3 have a CF3 group.
SMILES	Tg IFNy HTS
COC(=O)C1=C(C)NC(C)=C([N+](=O)[O-])[C@H]1c1ccccc1C(F)(F)F	-34.5
O=S(=O)(c1cc(Cl)c(Cl)s1)N1CCN(c2cc(C(F)(F)F)ccn2)CC1	-29.3
Cc1cc(C(F)(F)F)nn1CC(=O)N1CCCC1c1cc(C(C)C)no1 (stereo not drawn)	0.4

Further records
SMILES	Tg IFNy HTS
CCN1C(=O)C2(CCN(Cc3cccnc3)CC2)CC12CCN(S(C)(=O)=O)CC2	0.3
O=C(c1ccc2c(c1)OCO2)N1CCN(S(=O)(=O)c2cc3c4c(c2)CCC(=O)N4CCC3)CC1	-4.5
C/C(=C\c1ccco1)CN1C[C@H](N(C)C)C[C@H]1CO	5.9
COc1ccc(NC2=C(Cl)C(=O)N(c3ccccc3)C2=O)c(OC)c1	-1.4
CCOCC1CN(Cc2cnn(C)c2)Cc2ncn(C)c21 (stereo not drawn)	-0.1
CC(=O)O[C@@H]1CC2C(C)(C)C(=O)CC[C@]2(C)C2CC[C@@]3(C)[C@H](c4ccoc4)OC(=O)C4OC43[C@@]21C (stereo partly drawn)	-29.8
O=C(O)CN(CC(=O)Nc1ccc2c(c1)OCCCO2)Cc1ccccc1	42.7
CCC(=O)NCCc1sc(-c2ccc(F)cc2)nc1C	254.0
CCc1c(C)nn(CC(=O)NCc2nn(C)c3ccc(C)cc23)c1C	-0.8
O=C(C[C@H]1CC[C@H]2NC[C@H](O)COC[C@@H]2O1)NCCc1ccncc1	-27.7
CCc1cn[nH]c1C1CCCN(C(=O)c2nnc3nc(C)ccn23)C1 (stereo not drawn)	-37.7
O=C(Nc1cccc2ccccc12)OC1CCS(=O)(=O)C1 (stereo not drawn)	27.7
COc1ccc(OC)c(CC(=O)N2CCn3c(C(N)=O)cnc3C2)c1	0.2
COc1ccccc1-c1c(C(F)(F)F)oc2cc(OC(=O)c3ccc([N+](=O)[O-])cc3)ccc2c1=O	19.8
Cc1nc(-c2cn(C(C)C)c3ncccc23)sc1C(=O)N1CCCCC1C (stereo not drawn)	-105.7*
Cc1cccc(S(=O)(=O)N2CC3CCCC(N(C)Cc4ccco4)C3C2)c1 (stereo not drawn)	8.7
Cc1ccc(C)c(-c2coc(-c3ccc(NC(=O)NCc4ccco4)cc3)n2)c1	-17.9
CC(C)c1ccc(NC(=O)Cn2cnc3c2c(=O)n(C)c(=O)n3C)cc1	9.1
Cc1cc(O)cc(=O)n1CCCC(=O)O	23.9
O=C(CO)N1CCc2[nH]nc(-c3ccc(F)cc3)c2CC1	11.3
Cc1ccc(C(NC(=O)C2(c3ccc(Cl)cc3)CCOCC2)c2cccnc2)cc1 (stereo not drawn)	-15.9
Cc1ccc(CN2CCOCC3(CC(CN4CCCC4)CO3)C2)o1 (stereo not drawn)	105.6
COc1ccc2c3c(n(C)c2c1)[C@H](CO)N(Cc1ccc(Cl)cc1)CC31CCN(CC2CC2)CC1	348.1
CCn1c(C2CCN(S(=O)(=O)N3CCCC3)CC2)n[nH]c1=O	-39.0
Cc1ccc(-c2nc(CCNC(=O)C(=O)NC(C)c3ccccc3)cs2)cc1 (stereo not drawn)	86.1
CCC(Cn1ccnc1)NC(=O)c1ccc(=O)[nH]c1 (stereo not drawn)	56.0
O=C(C[C@@H]1C=C[C@@H](NC(=O)Cc2ccccn2)[C@@H](CO)O1)NCCc1ccncc1	-9.6
COCCN(C)C(=O)c1ccc2nnc3ncn(CC4CCCO4)c3c2c1 (stereo not drawn)	3.4
C[C@@H]1CN([C@H](C)CO)C(=O)c2c(c3ccccc3n2C)-c2ccccc2CO[C@@H]1CN(C)C(=O)[C@@H](Cc1ccccc1)N(C)C	-59.5
CC(c1cccc(-c2cc(O)cc(C(=O)O)c2)c1)N(C)C (stereo not drawn)	32.2
CCOc1ccc(NC(=O)Cn2ncc3c(N4CCCCC4)ncnc32)cc1	49.7
COCc1cc(=O)[nH]c(Nc2nc3ccccc3o2)n1	17.4
CCOCC(=O)N1Cc2ccnn2CC(COc2cccnc2)C1 (stereo not drawn)	9.6
O=C(Cn1cnnn1)N1CC(=O)N(C2CCCCC2)CC(OCc2ccccc2)C1 (stereo not drawn)	9.0
COCC(=O)N1[C@@H]2CN(C(=O)Nc3ccccc3Cl)c3ccccc3[C@@H]2[C@@H]1CO	-33.0
O=C1NCCN2CCN(c3nc4ccc(Cl)cc4s3)CC12 (stereo not drawn)	363.9
CCc1ccc(S(=O)(=O)N2CCc3nc(N4CCCC4)nc(C)c3CC2)cc1	-34.6
Cc1ccc2c(C)cc(SCc3cc(=O)[nH]c4ccccc34)nc2c1C	29.5
CCc1cnc(C)nc1-c1cccc(-n2cccn2)c1	10.2
CC(C)c1ccc(/C=C/C(=O)O)cc1	1.2
Cc1nc(-c2ccccc2)sc1CCNS(=O)(=O)c1ccc2c(c1)OCCO2	101.1
COCC(=O)N1CCCN(C(=O)[C@]23CC[C@](C)([C@@H](O)C2)C3(C)C)CC1	0.3
Cc1ccc(Cn2c(=O)n(C)c(=O)c3sccc32)cc1	-8.7
CCN1CCOCC2(CCCN(C(=O)c3ccc4cc[nH]c4c3)C2)C1 (stereo not drawn)	-0.4
CC(C)N1CCC2(CC1)CC(NC(=O)c1csnn1)c1ccccc1O2 (stereo not drawn)	0.6
O=C(C1CC1)N1CC[C@@H]2[C@H]1c1cc(Br)ccc1N[C@@H]2CO	14.7
Cc1ccc(CS(=O)(=O)N2CCC3(CC(=O)N(c4ccc(C)cc4)C3)C2)cc1 (stereo not drawn)	-4.4
CSc1c(C#N)c(N)nc(SCc2ccc(F)c(F)c2)c1C#N	-2.9
CCOc1ccccc1-c1nc(Cn2nnc(C(=O)Nc3ccccc3C)c2C)c(C)o1	138.7
COCc1nc(N[C@@H]2CCN(C)C[C@@H]2Cc2ccccc2)c2cnn(C)c2n1	-2.7

(list continues)
SMILES	Tg IFNy HTS
O=C(c1ccccc1)c1ccc2[nH]c(=S)[nH]c2c1	-94.0*
CN(C)S(=O)(=O)c1ccc2c(c1)cc(C(=O)NC1CCCCCC1)n2Cc1ccncc1	50.6
S=C(Nc1ccc2snnc2c1)N1CCN(c2ccccn2)CC1	-45.7
Cc1ccccc1-c1noc(CNC(=O)CCSc2ccc3c(c2)OCCO3)n1	-1.0
COc1cc(N2CCO[C@H]3[C@@H](Oc4ccccn4)CC[C@H]32)ncn1	-1.7
CN(C)C1CCN(C(=O)C2=NOC3(CCN(Cc4ccc(Cl)c(F)c4)C3)C2)CC1 (stereo not drawn)	-7.7
COC(=O)c1cc(CN2CCN(c3ncnc4ccccc34)CC2)cs1	-54.9
O=C(Cn1c(=O)cc(C(=O)N2CCOCC2)c2ccccc21)Nc1ccc(F)c(Cl)c1	12.0
CC(C)C(NC(=O)c1ccccc1Cn1cncn1)c1ccc(F)cc1 (stereo not drawn)	7.6
CC(C)c1nnc(NC(=O)COc2ccc3c(c2)OCO3)s1	-84.6*
CCOC(=O)c1cnn(-c2ccccc2)c1NC(=O)CSc1nc2ccccc2s1	-4.3
CC(C)NC(=O)N1CCN(Cc2ccncc2)c2ncccc2C1	-39.0
COC(=O)[C@@H]1C[C@@H](NC(=O)c2cccc(-c3noc(C)n3)c2)CN1C	6.6
CCCC(=O)Nc1ccc2c(c1)OC[C@@H](C)N(S(=O)(=O)c1cn(C)cn1)C[C@H](C)[C@@H](OC)CN(C)C2=O	24.5
Cc1ccsc1CN(CCO)C(=O)c1ccc2c(c1)CCCO2	-32.7
C[C@H]1CN([C@@H](C)CO)C(=O)CCCn2nncc2CO[C@H]1CN(C)S(=O)(=O)c1ccccc1C#N	140.7
CC(C)Oc1cncc(C(=O)N2CCCC2)c1	-17.5
CCN(CC)C(CNC(=O)c1c(C)cc(C)n(C)c1=O)c1ccccc1Cl (stereo not drawn)	-53.9
CC(C)CN1CC(C(=O)NCc2csc(N(C)C)n2)CC1=O (stereo not drawn)	2.8
CCS(=O)(=O)N1CCC2(CC1)CN[C@@H](CO)c1[nH]c3cc(OC)ccc3c12	11.5
Cc1nc(-c2ccc(F)cc2)sc1CCNS(=O)(=O)c1cccs1	8.8
COc1ccc(-c2nc(C)c(CCNS(=O)(=O)c3ccc(Cl)s3)s2)cc1	i
COc1cc(OC)cc(C(=O)NCCc2sc(-c3cccc(F)c3)nc2C)c1	23.8
Cc1csc2c(N(C)CCO)ncnc12	45.0
C[C@H](CO)N1C[C@H](C)[C@@H](CN(C)C(=O)NC2CCCCC2)OCCCC[C@H](C)Oc2ccc(N(C)C)cc2C1=O	119.0
Cc1ccc(CC2(NC(=O)c3cnc(C4CC4)[nH]c3=O)CC2)cc1	-3.1
CCOc1ccc(CN[C@@H]2CCC[C@H]2Cc2cc(C)no2)cc1Cn1ccnc1	-45.0
Cn1cc(CN2CCC3(CCC(OCCO)c4ccccc43)CC2)cn1 (stereo not drawn)	3.9
C=CC[C@@H]1CC=C[C@@H](C)N1C(=O)COc1cccc(NC(=O)CC)c1	-4.0
CS(=O)(=O)N1CCCC2(COCCN(c3cnccn3)C2)C1 (stereo not drawn)	-0.3
COC(=O)c1cc(C)nc2c1c(=O)nc(SCc1nc(-c3ccccc3Cl)oc1C)n2C1CC1	i
O=C(Nc1ccc2c(c1)COC2)c1ccccc1C1CCNC1 (stereo not drawn)	-11.0
Cc1cc(C)c2c(n1)nn1c(Nc3ccc4c(c3)OCO4)cc(C)nc21	-10.1
CCCNC(=O)N(C)C[C@@H]1Oc2cc(C#C[C@H](C)O)ccc2S(=O)(=O)N([C@H](C)CO)C[C@@H]1C	-48.8
CO[C@H]1CN(C)C(=O)c2cc(NS(=O)(=O)CC(F)(F)F)ccc2OC[C@@H](C)NC[C@H]1C	266.1
Cn1cc(CN2CCC(C(O)(c3ccccc3)c3ccccc3)CC2)cn1	4.3
Cn1cnc2c1c(=O)n(Cc1ccc(-c3nnc(N)s3)cc1)c(=O)n2C	3.1
O=S(=O)(c1ccc2c(c1)CCCC2)N1CCC2(CC1)NCCN=C2NCc1cccc(F)c1	-42.8
O=C(c1ccc2c(c1)CCC(=O)N2Cc1ccccc1)N1CCN(c2ccc(F)cc2)CC1	-107.6*
FC(F)(F)CCc1ccnc(NCc2cccnc2)n1	2.6
O=C(CCC1Nc2c3ccccc3nc(=S)n2C1=O)NCc1cccnc1 (stereo not drawn)	18.3
O=C(O)C1CCN(C(=O)CCN2CCCCCCC2)CC1	4.6
CC1CCN(Cc2ccnc(-c3cccnc3)n2)CC1	12.9
O=C(Nc1ccc2ccccc2n1)c1cc(Cl)sc1Cl	146.9
CN(C)C(=O)c1ccc2c(c1)N(C)C(CC(=O)NCCn1ccnc1)CO2 (stereo not drawn)	-2.3
CCOCC12CCCOC1CCN(C(=O)Cc1ccsc1)C2 (stereo not drawn)	0.8
CC(C)Cn1c(CCCN2C(=O)c3ccccc3C2=O)nc2ccccc2c1=O	21.2
COc1ccc(C(CC(=O)c2cccs2)Sc2ccccc2N)c(Cl)c1OC (stereo not drawn)	217.4
COc1ccc2c3c(n(C)c2c1)[C@@H](CO)N(C)CC31CCN(C(=O)c2cccnc2)CC1	15.8
